# Screening results deposited in PubChem BioAssay by Johns Hopkins Ion Channel Center.
# KCNQ2 enhance: enhances the rat KCNQ2 potassium channel | O88943 | CHO-K1 KCNQ2, FluxOR thallium flux fluorescence; active compounds read high | B-score at 10 µM | 310,000 tested, 0.54% active | AID 2239;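 active = fluorescence ratio B-score at least 3 SD of library B-scores, with initial fluorescence B-score within 3 SD, cut at about 5.3 in these data; same plate scores as AID 2156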;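 note: B-score of peak minus minimum over baseline fluorescence ratio after K+ and Tl+ stimulus; positive B-score means potentiation of KCNQ2 with more thallium influx and brighter signal; only the inactives scoring about 0 or higher are listed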
# Target sequence (O88943 whole entry, looked up): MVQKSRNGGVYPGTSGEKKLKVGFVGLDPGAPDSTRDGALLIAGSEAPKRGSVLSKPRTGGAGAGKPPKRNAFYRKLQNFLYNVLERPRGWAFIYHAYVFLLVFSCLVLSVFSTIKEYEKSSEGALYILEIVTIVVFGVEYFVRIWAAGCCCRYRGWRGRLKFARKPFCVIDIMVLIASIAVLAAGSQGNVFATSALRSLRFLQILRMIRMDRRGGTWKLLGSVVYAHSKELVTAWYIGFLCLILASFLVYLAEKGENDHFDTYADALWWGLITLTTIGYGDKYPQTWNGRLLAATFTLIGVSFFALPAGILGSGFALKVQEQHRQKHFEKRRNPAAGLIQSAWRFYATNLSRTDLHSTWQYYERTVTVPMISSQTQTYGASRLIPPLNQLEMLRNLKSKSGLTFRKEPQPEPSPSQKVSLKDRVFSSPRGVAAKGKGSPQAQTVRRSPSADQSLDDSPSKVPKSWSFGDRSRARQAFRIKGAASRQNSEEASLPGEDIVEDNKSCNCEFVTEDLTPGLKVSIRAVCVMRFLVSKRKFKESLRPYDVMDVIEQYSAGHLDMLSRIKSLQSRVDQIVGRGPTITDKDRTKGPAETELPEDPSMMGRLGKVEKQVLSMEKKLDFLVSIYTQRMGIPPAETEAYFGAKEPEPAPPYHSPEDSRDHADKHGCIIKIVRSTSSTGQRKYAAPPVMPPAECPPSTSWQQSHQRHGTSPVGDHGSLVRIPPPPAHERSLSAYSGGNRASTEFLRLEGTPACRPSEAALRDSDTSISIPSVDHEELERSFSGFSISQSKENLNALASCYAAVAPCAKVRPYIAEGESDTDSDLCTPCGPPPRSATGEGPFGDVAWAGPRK
# KCNQ2 enhance baseline: also measured in KCNQ2 enhance; calls as there; B-score; compound at 10 µM; measured here: initial fluorescence intensity artifact check;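 brightness before thallium and not channel activity; 0 = typical well and far values either way flag optical interference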
# * hit, by the source's call. This is a subset, so the mix of outcomes need not match the whole.
SMILES,KCNQ2 enhance,KCNQ2 enhance baseline
Cc1ccc(C(=O)Cn2c3[n+](c4ccccc42)CC(O)CS3)cc1 (centres undefined),0.54,-0.29
NC(=O)CCn1cnc2ccccc21,1.1,-0.29
Cc1cccc(NC(=O)c2ccc(C(=O)Nc3cccc(C)c3)nc2)c1,0.03,-0.62
CCCCN1C(=O)/C(=C2\SC(N3CCCCC3)=NC2=O)c2ccccc21,0.48,-0.35
COc1ccc(-c2nnc(SCC(=O)NCc3ccco3)o2)cc1,0.05,1.1
Cc1cc(C)n(-c2ccc(C(=O)N3CCc4ccccc43)cc2)n1,1.9,1.6
Cc1ccc(S(=O)(=O)N(C)C)cc1NC(=O)COC(=O)Cc1ccccc1F,0.54,0.36
Cc1ccc(NC(=O)c2cccc(S(=O)(=O)N3CCCCC3)c2)cc1,0.53,0.13
Cc1nn2c(COc3ccc(NC(=O)C(C)C)cc3)nnc2c2ccccc12,0.94,-0.69
COC(=O)CN(c1ccccc1)S(=O)(=O)c1ccc(F)cc1,0.02,1.5
CCOCCC(=O)Nc1nnc(CCc2ccccc2)s1,2.2,0.78
CCOC(=O)Cc1cnc(NC(=O)CSc2nc(N)cc(N)n2)s1,1,-0.11
COc1ccccc1/C=C/c1ccc2cccc(O)c2n1,1.4,1.4
O=C(O)c1cc(S(=O)(=O)N2CCN(C(c3ccccc3)c3ccccc3)CC2)ccc1Cl,0.02,0.87
COCCNC(=O)c1c(CSc2ccccc2)noc1C(=O)NCc1ccccc1,0.76,0.72
CCOC(=O)C1(CCOc2ccccc2)CCN(C(=O)CCSC)CC1,1.2,0.32
CCOC(=O)NC(Nc1ncccn1)(C(F)(F)F)C(F)(F)F,0.8,-0.38
CS(=O)(=O)NNC(=O)Cn1nnc(-c2cc(C(F)(F)F)cc(C(F)(F)F)c2)n1,0.04,0.21
CCC(C)[C@@H](C(=O)N1CCNCC1)n1cc(CCCCN)nn1 (some centres undefined),1.2,0
CCNc1nnc(-c2ccc(C)cc2)o1,0.45,1.3
Nc1nc(NCc2ccco2)nc(NCCO)c1[N+](=O)[O-],0.02,-0.74
Cc1cc(C)n(CC(=O)NCCC2=CCCCC2)n1,0.73,1.3
CCc1cccc(CC)c1NC(=O)CSc1nnc(C(C)C)n1CC,0.77,-0.93
CCCS(=O)(=O)N1CCCC(C(=O)N2CCCCC2)C1 (centres undefined),0.03,0
Cc1cccc([C@@H]2[C@@H]3C(=O)N(Cc4ccccc4)C(=O)[C@@H]3[C@]3(C)C(=O)N(c4cccc(Cl)c4)C(=O)N23)c1,0.82,-0.81
COC(=O)C1=C(C)N(CCCC(=O)O)C(=O)NC1c1ccc(OC)cc1 (centres undefined),0.3,-2.2
COc1ccc2cc3cc(C(=O)NCCN4CCN(Cc5ccccc5)CC4)oc3nc2c1,1.4,0.3
CC1CCCN(C(=O)C2CCN(CCCc3ccccc3)CC2)C1 (centres undefined),0.02,-0.66
CCS(=O)(=O)N1CCC(C(=O)NCc2ccc(F)cc2)CC1,0.46,0.04
COc1cccc(-c2noc(CCC(=O)NC3CCCC3)n2)c1,0.35,0.45
COC(=O)c1cc(NC(=O)c2c(-c3ccccc3)noc2C)ccc1N1CCOCC1,1.2,-1.5
CCN1C(=O)[C@H]2[C@@H](c3ccc(C)cc3)N3C(=O)N(c4ccc(C)cc4)C(=O)[C@@]3(C)[C@H]2C1=O,0.23,-0.19
COc1ccc(CNC(=O)C2CCCN2)cc1OC (centres undefined),0.05,-1
COc1cc(NC(=O)CSc2nnc(C)s2)cc(OC)c1,0.79,-0.58
CCOC(=O)Cc1csc(NC(=O)c2ccco2)n1,0.43,-0.73
O=C(COC(=O)COc1ccccc1)NCCc1ccccc1,0.05,0.65
COc1ccc(OC)c(C2NC(=O)NC(C)=C2C(=O)OC2CCCCC2)c1 (centres undefined),2,-0.64
O=C(c1ccccc1)c1ccc2ccccc2n1,0.79,1.2
CCc1ccc(CNC(=O)C2CCCN(S(=O)(=O)N3CC(C)CC(C)C3)C2)cc1 (centres undefined),4.3,2
COc1ccc(NC(=O)C2CCCN2C(=O)NC2CCCCC2)c(OC)c1 (centres undefined),1.4,1.9
COc1cccc(CNc2ccc(S(N)(=O)=O)cc2)c1OCc1ccccc1F,9.3*,-0.25*
Cc1cccc(C(=O)NC2CCN(S(=O)(=O)c3ccccc3)CC2)c1,1.4,0.95
Cc1nc2ccc(NS(=O)(=O)c3ccc(F)c(C)c3)cc2[nH]1,0.92,-1.1
CSc1nc2ccccc2n1CC(=O)Nc1ccc(C)c(C)c1,0.71,0.03
NC(=O)c1ccc(NC(=O)CNC(c2ccccc2)c2ccccc2)cc1,0.86,1.7
CCOC(=O)CCCNC(=O)c1cncc(O)c1,0.47,0
CCN(CC(=O)N1CCCC1)S(=O)(=O)c1ccc(OC)cc1,0.62,-0.1
COc1ccc(NC(=O)COC(=O)C2CC3C=CC2C3)cc1 (centres undefined),0.32,-0.39

# Look-ups from the results shown.
# Result for CCc1ccc(CNC(=O)C2CCCN(S(=O)(=O)N3CC(C)CC(C)C3)C2)cc1 (centres undefined) under KCNQ2 enhance baseline: 2
# Result for Cc1nc2ccc(NS(=O)(=O)c3ccc(F)c(C)c3)cc2[nH]1 under KCNQ2 enhance: 0.92
# Result for CCOC(=O)CCCNC(=O)c1cncc(O)c1 under KCNQ2 enhance baseline: 0

# Other entries.
SMILES,KCNQ2 enhance,KCNQ2 enhance baseline
Cc1nc(SCC(=O)NCc2ccc3c(c2)OCO3)c(C#N)c2c1CCCC2,1.3,0
N#Cc1c(-c2ccccc2)cc(-c2ccccc2)nc1SCC(=O)NCC(=O)O,0.48,-0.7
CCc1ccc(NS(=O)(=O)c2ccc3oc(=O)ccc3c2)cc1,0.89,2
COCCCNC(=S)N/N=C/c1cccc(OC)c1O,0.7,-0.08
Cc1cccn2c(=O)c3cc(C(=O)NCCN4CCOCC4)c(=N)n(CCCN4CCOCC4)c3nc12,0.77,0.46
COc1ccc(CC(=O)Nc2ccc(-c3ccc4nnc(C)n4n3)cc2)cc1OC,0.35,-0.33
COc1ccc(OC)c(-n2c(SCC(=O)Nc3cccc(S(N)(=O)=O)c3)nc3ccccc3c2=O)c1,0.7,1
N#CCOc1nc(N2CCCCC2)nc(N2CCCCC2)n1,1.9,-0.68
COc1ccc2ccccc2c1/C=N/NC(=O)c1cccc([N+](=O)[O-])c1,1.3,1.1
CC(NC(=O)CCC(=O)Nc1ccccc1O)c1ccccc1 (centres undefined),0.03,1.4
CN(C1CCCCC1)S(=O)(=O)c1ccc2c(c1)c(=O)c(C(=O)NCCCN1CCCC1)cn2C,1.4,-0.38
CCCN(CCC)CC(O)COc1ccc([N+](=O)[O-])cc1 (centres undefined),0.72,-0.07

# Compound profiles, as listed above. Screens in order: KCNQ2 enhance, KCNQ2 enhance baseline
# `COCCCNC(=S)N/N=C/c1cccc(OC)c1O` is listed as 0.7, -0.08
# `N#CCOc1nc(N2CCCCC2)nc(N2CCCCC2)n1` is listed as 1.9, -0.68
# `N#Cc1c(-c2ccccc2)cc(-c2ccccc2)nc1SCC(=O)NCC(=O)O` is listed as 0.48, -0.7
# `COc1ccc(OC)c(-n2c(SCC(=O)Nc3cccc(S(N)(=O)=O)c3)nc3ccccc3c2=O)c1` is listed as 0.7, 1
# `COc1ccc2ccccc2c1/C=N/NC(=O)c1cccc([N+](=O)[O-])c1` is listed as 1.3, 1.1

# (continued)
SMILES,KCNQ2 enhance,KCNQ2 enhance baseline
O=C(O)c1cnn2c(C(F)(F)F)cc(-c3ccco3)nc12,2,-0.93
CNC(=O)c1ccc(-n2cccn2)nc1,0.06,-0.45
Cc1nc2oc3ccccc3c(=O)c2c(=O)n1Cc1ccccc1,0.33,-0.31
O=C(Cc1cccc2ccccc12)Nc1c(F)cccc1F,0.5,1.5
NC(N)=NS(=O)(=O)c1ccc(NC(=S)NC(=O)Cc2ccc(Cl)cc2)cc1,0.5,0.43
CCCn1nc(NC(=O)CC(C)C)c2cc3ccccc3nc21,0.78,0.03
c1cnc2c(c1)ncc1cscc12,0.38,-0.63
COc1ccc(/C=N/NC(=O)CSc2n[nH]c(=O)[nH]c2=O)cc1,1.4,2.5
COc1ccc(C(C(=O)NC(C)(C)C)N(CCc2ccc(OC)c(OC)c2)C(=O)CCC(=O)Nc2cc(C)on2)cc1 (centres undefined),0.07,-0.01
Cc1cccc2c1-c1sc(C(=O)Nc3cccnc3)cc1CO2,1.6,1.8
Fc1ccc(-c2[nH]ncc2CN(CC2CCC2)CC2CCCO2)c(F)c1 (centres undefined),0.12,-1.5
Cn1cccc1Cc1nnc(SCC(=O)NC2CCCC2)n1CCc1ccccc1,1.2,-1.1
CC(C)(C)c1ccc(OC(=O)Nc2ccc(O)c(C(=O)O)c2)cc1,0.66,0.92
COc1ccc(CC(=O)NNS(=O)(=O)c2cccc([N+](=O)[O-])c2)cc1OC,1.2,0.04
CCc1ccccc1N1C(=O)C2CC=CCC2C1=O (centres undefined),0.62,-0.02
COCCNS(=O)(=O)c1ccc2c(c1)C(=O)c1cc(S(=O)(=O)NCCOC)ccc1-2,1.2,-0.07
CC(C)(C)c1ccc(C2CC2C(=O)N/N=C\c2ccc[nH]2)cc1 (centres undefined),1.6,0.42
CCOc1ccc(CC(=O)NCc2cn3c(C)csc3n2)cc1,0.54,-0.04
CCOc1nc(OCC)nc(N2CCC(C)CC2)n1,0.25,-0.29
O=C(O)c1cc(O)ccc1-c1ccc(O)cc1,1.2,0.44
O=C(O)C1CCCCC1C(=O)Nc1ccccn1 (centres undefined),0.07,-0.05
Cc1cc(CNCc2c(C(=O)N3CCCCCCC3)nc3ccc(Cl)cn23)nn1C,0.07,1.8
Cc1cccc(CCNS(=O)(=O)c2ccc(S(=O)(=O)NC3CCCC3)cc2)c1,0.25,-0.62
COc1cc2[nH]c3c(OC)ncnc3c2cc1OC,2.2,-1.2
O=C1NC(=O)/C(=C/c2cc3c(cc2Br)OCO3)S1,1.8,-0.38
CSc1nc(O)c(N=Nc2ccc(F)cc2F)c(=O)[nH]1,0.04,0.49
Cc1ccccc1N/N=C/c1ccc(N2CCOCC2)cc1,1.1,-1.8
Cn1ncc(C#N)c1/N=C/N1CCCC1,0.14,-0.15
Cc1nc2nc(CSc3nnc(C)s3)cc(=O)n2[nH]1,0.87,-1.7
CCCCOc1ccc(C(=O)NC)cc1,1.9,1.3
COc1cc(C(=O)n2cnc3ccccc32)c([N+](=O)[O-])cc1OC,0.89,-0.76
Cc1ccc(NC(=O)C(=O)NN)cc1,0.98,-1.3
Cn1ncc(Cl)c1C(=O)Nc1cc(C(F)(F)F)ccc1F,2,-0.12
CC1=NOC(=O)/C1=C/c1ccc(O)cc1,1.9,-0.11
Cc1cc(OC(C)C)nc(NCc2ccccc2)n1,1.3,-2.3
CSc1cccc(CN2CCN(CCC(C)C)C(CCO)C2)c1 (centres undefined),0.19,0.1
Cc1cc(C)n(C(C)CC(=O)Nc2ccc(-c3ccno3)cc2)n1 (centres undefined),0.65,-0.02
COCCNC(=S)Nc1cc(S(=O)(=O)N2CCOCC2)ccc1N1CCCCC1,0.09,-3.8
C=CCN(C(=O)c1csnn1)C(C(=O)NC1CCCC1)c1c(F)cccc1Cl (centres undefined),0.11,-0.93
Fc1ccccc1-c1n[nH]c(=S)n1CC1CCCO1 (centres undefined),0.62,2.1
Fc1ccc(N2CCN(c3ncnc4nc[nH]c34)CC2)cc1,1.2,-0.51
COc1ccc(/C(C)=N\O)cc1OC,2.1,0.83
CC(C)c1ccc(NC(=O)CN2C(=O)NC3(CCCC3)C2=O)cc1,2.3,1.9
COC(=O)c1cc(OC)cc(O)c1C(=O)c1c(O)cc(C)cc1O,0.44,1.7
COC(=O)CN(c1ccccc1F)S(=O)(=O)c1ccc(C)cc1,0.97,-3.1
COc1ccc(NC(=O)CN2CCc3ccccc3C2)cc1S(=O)(=O)N1CCOCC1,0.02,-0.03
COc1ccccc1NC(=O)C1=C(C)Nc2ncnn2C1c1cccs1 (centres undefined),0.65,0.48
O=C(COC(=O)Cc1ccc(Cl)cc1Cl)Nc1ccc(OC(F)F)cc1,1.6,-0.5
C[C@@H](NC(=O)C1(c2ccccc2)CCN(C(=O)OC(C)(C)C)CC1)C(=O)N[C@@H](Cc1ccccc1)C(=O)O,0.57,-0.36
CC(C)OCCCn1c(=NC(=O)c2ccncc2)c(C#N)cc2c(=O)n3ccccc3nc21,2.1,5.9
CCCn1cc(CN2CCC(N3CCC(C(=O)N4CCOCC4)CC3)CC2)c(C)n1,0.07,-0.52
C[N+](C)(C)CCCN(Cc1ccc2c(c1)OCO2)C(=O)NC1CCCCC1,0.03,2.6
NC(=O)c1ccc(NC(=O)COC(=O)c2ccc3c(c2)OCCO3)cc1,0.96,1.4
CC(C)NS(=O)(=O)c1ccc(OCC(=O)N2CCCC2)cc1,0.42,-1
CCOc1ccc(/C=C2/Sc3ccc(C(=O)NCC4CCCO4)cc3N(C)C2=O)cc1OC (centres undefined),2.3,-0.09
O=C(Cc1ccccc1)Nn1cnc2ccccc21,0.84,2
CC(c1ccccc1)n1c(-c2ccccc2F)n[nH]c1=S (centres undefined),0.88,-1
CCCCn1c(N2CCCC2)nc2c1c(=O)[nH]c(=O)n2C,0.01,1.7
COc1ccc(CCNC(=O)CC(C)(C)CC2=NS(=O)(=O)c3ccccc3N2)cc1OC,0.68,1.7
COc1cc(NC(=O)c2cccnc2SC)cc(OC)c1OC,0.01,0.85
O=C(CN1CCC(O)(c2ccc3c(c2)OCO3)CC1)NC1CCCCC1,1.6,-2
CCO[C@@H]1OC(C(=O)NCc2ccccc2)=C[C@H](c2ccc3c(c2)OCO3)[C@H]1CCCO,0.47,-1.1
